# KCNQ2 inh – KCNQ2 potassium channel inhibitors, primary screen, cell-based, CHO-K1, FluxOR thallium flux, B-score (AID 2156); O88943; 20 min; stronger effect = lower value; only compounds with negative scores are shown here; some inactives read as strong as hits; B-score at 10 µM; 1.1% of 310,000 active;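 active = fluorescence ratio B-score at most minus 3 library SDs, with starting brightness B-score within 2 library SDs, cut at about -5.5 in these data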
# Target sequence (O88943 whole entry, looked up): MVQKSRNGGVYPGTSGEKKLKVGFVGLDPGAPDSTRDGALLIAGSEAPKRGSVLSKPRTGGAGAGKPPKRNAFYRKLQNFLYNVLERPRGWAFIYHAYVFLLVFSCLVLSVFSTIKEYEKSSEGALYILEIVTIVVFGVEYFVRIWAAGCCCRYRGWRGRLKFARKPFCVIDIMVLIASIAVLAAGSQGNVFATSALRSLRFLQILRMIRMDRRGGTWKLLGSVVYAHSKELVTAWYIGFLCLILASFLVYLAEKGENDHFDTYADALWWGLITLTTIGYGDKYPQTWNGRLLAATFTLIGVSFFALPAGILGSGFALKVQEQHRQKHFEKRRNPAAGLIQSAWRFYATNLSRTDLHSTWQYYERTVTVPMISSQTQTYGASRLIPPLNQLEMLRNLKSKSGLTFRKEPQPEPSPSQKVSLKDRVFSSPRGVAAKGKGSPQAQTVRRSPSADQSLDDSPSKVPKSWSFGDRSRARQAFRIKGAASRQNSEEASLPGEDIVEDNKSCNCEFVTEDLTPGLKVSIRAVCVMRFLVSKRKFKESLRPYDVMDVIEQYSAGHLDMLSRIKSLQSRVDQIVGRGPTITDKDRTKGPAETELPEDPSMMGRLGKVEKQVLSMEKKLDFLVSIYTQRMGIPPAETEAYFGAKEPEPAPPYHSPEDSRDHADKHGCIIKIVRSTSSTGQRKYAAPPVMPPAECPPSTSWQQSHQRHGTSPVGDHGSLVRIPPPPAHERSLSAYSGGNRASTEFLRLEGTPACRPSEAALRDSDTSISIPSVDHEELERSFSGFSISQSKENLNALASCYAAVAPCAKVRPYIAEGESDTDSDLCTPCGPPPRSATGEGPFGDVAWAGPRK
# KCNQ2 inh baseline – also measured in KCNQ2 inh; calls as there; B-score; measured here: initial fluorescence intensity artifact check;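 brightness before thallium and not channel activity; 0 = typical well and far values either way flag optical interference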
# * marks the source's active call; other numbers are inactive results; i = inactive. Only part of the results is shown; the hit share may differ from the screen's.
compound,KCNQ2 inh,KCNQ2 inh baseline
Cc1cc(C)n(/N=C/c2cccc(O)c2)c(=O)c1C(N)=O,i,1.2
CCn1nc(C)c(CNC(=O)c2cc(COc3cncc(Cl)c3)on2)c1C,i,-1.1
COC(=O)Cn1cnc2sc(C)c(S(=O)(=O)N3CCN(c4ccccc4OC)CC3)c2c1=O,i,-0.91
O=C(NN=C1C2CC3CC(C2)CC1C3)c1cccs1,i,-2.7
COc1ccc(-c2cc(C(=O)NCC(c3ccco3)N(C)C)c3ccccc3n2)cc1OC (stereo not given),i,-1.9
O=C(N/N=C/c1ccccc1)c1ccco1,i,1.1
O=[N+]([O-])c1ccccc1-c1ccc(CN2CCN(c3ccccc3)CC2)o1,i,-0.7
Cc1cc([N+](=O)[O-])ccc1N(C)C,i,0.54
Cc1ccc(-n2ncc(C(=O)NCC3CCN(C4CCCC4)C3)c2C2CCN(C(=O)OC(C)(C)C)CC2)cc1C (stereo not given),i,-0.21
C[C@@H]1CCC[C@]2(O[C@@H](CCO)C[C@@H](O)[C@@H]2O)O1,i,-2.1
CN(C)c1ccc(C(c2nnnn2C(C)(C)C)N2CCN(C(=O)c3ccco3)CC2)cc1 (stereo not given),i,-0.7
CN(c1ccc(C(=O)N2CCN(Cc3ccc4c(c3)OCO4)CC2)cc1)S(=O)(=O)c1ccccc1,i,-1.5
CCOC(=O)C1(Cc2ccc(Cl)cc2)CCN(CCCn2cccn2)CC1,i,0.45
CC1CCCCN1C(=O)CSc1nnc(-c2ccco2)n1C (stereo not given),i,-0.83
O=C(NC1=NCCS1)c1cc(-c2cccc(Br)c2)nc2ccccc12,i,0.27
CN(C)c1ccc(NC(=O)CN2CCN(CC(=O)Nc3ccc(F)cc3)CC2)cc1,i,-0.15
O=C(CSc1n[nH]c(-c2cccnc2)n1)Nc1ccnc2ccccc12,i,1.5
COc1ccc(NC(=O)CCNS(=O)(=O)c2cccc3nonc23)c(OC)c1,i,-1.1
O=C(CCNC(=O)c1ccc([N+](=O)[O-])cc1)NCCCN1CCCC1=O,i,-0.36
CC(C)(C)C1CCc2onc(C(=O)Nc3ccc(F)cc3F)c2C1 (stereo not given),i,0.08
CC(C(=O)NCc1cccc(Cl)c1)N1C(=O)c2ccccc2C1=O (stereo not given),i,2.1
COC(=O)CN(c1ccc(C)c(Cl)c1)S(C)(=O)=O,i,0.25
CCCC(=O)Nc1ccc(C(=O)NN2C(=O)c3ccccc3C2=O)cc1,i,-1.3
CCCOC(=O)c1ccc(OC(=O)c2ccco2)cc1,i,1.6
CC(C)(O)C#Cc1ccc(C(=O)N2CCCC(CCC(=O)NCc3ccccc3F)C2)cc1 (stereo not given),i,-2.3
O=C(c1ccco1)N1CCN(c2ccc(N3CCCCC3)nn2)CC1,i,-0.31
CC(C)(C)Nc1nc(SCc2ccccc2)nc(N2CCOCC2)n1,i,-0.04
O=C(CNc1cccc2ccccc12)N/N=C/c1ccc[nH]1,i,-1.4
CCC(=O)OC1c2ccccc2C(=O)N1Cc1ccccc1 (stereo not given),i,-0.19
COc1ccc(OC)c(C2C(C(C)=O)=C(O)C(=O)N2Cc2cccnc2)c1 (stereo not given),i,2.8
COc1ccc(S(=O)(=O)N2CCN(c3ccccc3OC)CC2)cc1OC,i,0.11
O=C(c1cc(Br)c[nH]1)N1CCSCC1,i,-1.2
O=C(CSc1ncn[nH]1)c1ccc(OC(F)F)cc1,i,-0.39
O=C(N/N=C/c1ccc(-c2ccc([N+](=O)[O-])cc2)o1)c1cccnc1,i,1.6
Cc1ccc(F)cc1NC(=O)CCOc1ccccc1,i,1.7
CCn1nnnc1SCC(=O)Nc1cccc(NC(C)=O)c1,i,2.6
CCOC(=O)c1sc(NC(C)=O)nc1-c1ccccc1,i,-0.01
CCc1cccc(OCC(=O)Nc2cc(S(=O)(=O)N3CCOCC3)ccc2N2CCCC2)c1,i,0.5
O=C(CN(C(=O)CNS(=O)(=O)c1ccc(F)cc1)C1CCCC1)NCc1ccco1,i,-0.13
CC[C@H](C)C(C(=O)N1CCN(C(=O)OC(C)(C)C)CC1)n1cc(C(CC(C)C)NC(=O)OC(C)(C)C)nn1 (stereo not given in full),i,-0.42
CC(CCc1ccccc1)NC(=O)CSc1nccc(=O)[nH]1 (stereo not given),i,-1.9
CN(C)CCOC(=O)c1cccc(Br)c1,i,-1.4
Cc1ccc(S(=O)(=O)N2CCN(CC(=O)N/N=C\c3ccccn3)CC2)cc1,i,1.2
Cc1cc(C(C)(C)C)c(O)c(C(C)(C)C)c1,i,2
C/C(=N\NC(=O)c1ccc(Cn2cc([N+](=O)[O-])cn2)o1)c1cccc(NC(=O)c2cccnc2)c1,i,-1.3
CCN(CCCNC(=O)C1CCCN(S(=O)(=O)c2cnc[nH]2)C1)c1ccccc1 (stereo not given),i,-0.08
Oc1ccc2ccccc2c1C=Nc1ccc(Cl)cn1,i,1.5
CCOC(=O)Nc1ccc2c(c1)N(C(=O)N1CCN(C)CC1)c1ccccc1S2,i,0.01
COc1cc(-c2nc3ccc4ccccc4c3c3c2CCC3)cc(OC)c1OC,i,1.3
CCOC(=O)C1CCCN(C(=O)CC(c2ccccc2)c2ccccc2)C1 (stereo not given),i,-0.01
CC(=O)NCCc1nc2cc(NS(=O)(=O)c3ccc(Cl)cc3)ccc2n1C,i,2.4
O=C(CCc1nnc(CCCCc2ccccc2)o1)NCCc1cccnc1,i,0.29
CCOC(=O)c1ccc(-n2c(CN3CCN(CCO)CC3)nc3ccc([N+](=O)[O-])cc3c2=O)cc1,i,0.35
O=C(Oc1cccc(O)c1)C1CCCCC1,i,0.7
CCCCCCC(c1c(C)n(C)n(-c2ccccc2)c1=O)c1c(C)n(C)n(-c2ccccc2)c1=O,i,0.35
COc1cc2c(cc1OC)C(COc1ccc(C(C)C)cc1)NCC2 (stereo not given),i,-1.8
Cc1ccc(Cn2c(SCC(=O)NCc3ccco3)nc3ccsc3c2=O)cc1,i,-0.43
CC(=O)c1c(C)oc2ccc(N(C(C)=O)S(=O)(=O)c3cccc4cccnc34)cc12,i,0.24
NC(=O)c1c(NC(=O)c2ccccc2)sc2c1CCN(Cc1ccccc1)C2,i,1.4
Cc1ccc(Nc2ncc3c(n2)CC(C)(C)CC3=O)cc1,i,0.07

# Continued.
# Every second line gives: KCNQ2 inh	KCNQ2 inh baseline
> Cc1ccccc1Nc1nnc(-c2ccc(C(=O)NCCO)cc2)c2ccccc12
  i	0.12
> Cc1nn2c(N3CCCC3)c3c(nc2c1-c1ccccc1)CCC3
  i	-1.4
> N#CCN1CCN(CC(=O)Nc2cccc3ccccc23)CC1
  i	-0.06
> COc1ccc(-c2cc3ccccc3oc2=O)cc1NC(=O)c1ccc(Br)o1
  i	-0.38
> O=C(O)c1ccc(Cl)c(NCc2ccncc2)c1
  i	-0.31
> COc1ccc(C(=O)NC(=S)N2CC(C)OC(C)C2)cc1OC (stereo not given)
  i	0.03
> CCS(=O)(=O)Nc1ccc(C2=NN(C(=O)c3ccco3)C(c3cccc(F)c3)C2)cc1 (stereo not given)
  i	1.3
> CCn1c(/C=C/c2ccccc2F)nc2ccccc2c1=O
  i	-0.6
> CC(=O)c1ccc(C(=O)N2CCCC(CO)(Cc3ccccc3C)C2)s1 (stereo not given)
  i	-0.03
> CC1(C)CC(=O)C(C(c2ccc(F)cc2)C2C(=O)CC(C)(C)CC2=O)C(=O)C1
  i	-1.9
> O=C(O)CC1(CC(=O)Nc2cc(F)ccc2Cl)CCCCC1
  i	0.58
> CCCc1noc2c1/C(=N\O)CC(CC(C)SCC)C2 (stereo not given)
  i	-0.01
> CCOc1ccc(N=C(/C(C(=O)C(=O)N2CCOCC2)=C(/O)c2ccccc2)c2ccccc2)cc1
  i	1
> Cc1cccc(N2CCN(C(=O)C3CCC(=O)N(C4CC4)C3)CC2)c1C (stereo not given)
  i	-0.97
> COc1ccc(S(=O)(=O)N(C)C(C)CCc2ccco2)cc1 (stereo not given)
  i	1.8
> Cc1ccc(S(=O)(=O)N2CCOCC2)cc1C(=O)NCCN1C(=O)S/C(=C\c2ccccc2Cl)C1=O
  i	1.6
> CCOC(=O)C1=C(N)Oc2cc(C)[nH]c(=O)c2C1c1ccncc1 (stereo not given)
  i	3.1
> O=C(NCCN1CCOCC1)C1CCC(=O)N1Cc1ccccc1Cl (stereo not given)
  i	-1.9
> N#CN/C(=N\S(=O)(=O)c1ccccc1)c1ccccc1
  i	0.64
> CC1C(=O)CC(c2ccccc2)N(C)C1c1ccccc1 (stereo not given)
  i	1

# Taken from above:
# `CN(C)c1ccc(C(c2nnnn2C(C)(C)C)N2CCN(C(=O)c3ccco3)CC2)cc1` (stereo not given) in KCNQ2 inh baseline has -0.7
# `COC(=O)CN(c1ccc(C)c(Cl)c1)S(C)(=O)=O` in KCNQ2 inh baseline has 0.25

# (cont.)
# Every second line gives: KCNQ2 inh	KCNQ2 inh baseline
> Cc1ccc(C(=O)N/C(N)=N/c2nc3ccccc3o2)cc1
  i	-0.03
> C=CCSc1nc(N)c(C(=O)Nc2ccccc2)cc1C#N
  i	0.48
> CS(=O)(=O)C1=C(O)C(=O)N(CCCC(=O)O)C1c1ccccc1F (stereo not given)
  i	0.66
> CCOc1ccc(C(=O)CCC(=O)N(CC)CC(=O)NCc2ccc(Cl)cc2)cc1
  i	-0.4
> COc1cccc(C(=O)N2CCSC2=S)c1
  i	-1
> CC(C)CC(=O)Nc1ccc(S(=O)(=O)Nc2nccs2)cc1
  i	-0.55
> C(CNC1C2CC3CC(C2)CC1C3)CN1CCOCC1 (stereo not given)
  i	0.05
> COc1ccc(C(=O)N/C=C/n2cnc3cc(C(F)(F)F)ccc32)cc1
  i	-0.6
> COc1ccccc1N(CC(=O)N/N=C(\C)c1cccc(Br)c1)S(C)(=O)=O
  i	0.2
> Cc1ccc(NS(=O)(=O)c2ccc(-c3coc(C)n3)cc2)c(Br)c1
  i	0.41
> CCCC(=O)c1ccc(N2CCCCCC2)c(F)c1
  i	-0.53
> CCCCn1c(CN(Cc2ccccc2)Cc2ccccc2)nc2c1c(=O)n(C)c(=O)n2C
  i	0.81
> O=C(CNCc1ccc(Cl)cc1)N1CCc2ccccc2C1
  i	-0.95
> Cc1ccc(NC(=O)/C(=C\C=C\c2ccccc2)NC(=O)c2ccccc2)cc1
  i	0.88
> Cc1ccccc1CSc1nnc(-c2ccco2)n1Cc1ccco1
  i	-0.12
> CC1(C)Nc2ccccc2C(=O)N1c1ccc(Br)cc1
  i	0.68
> CCN(CC)C(=O)Cn1cc(S(=O)(=O)CC(=O)NC2CCCCC2)c2ccccc21
  i	-0.81
> COc1ccc2c(c1OC)C(=O)OC2CC(=O)O (stereo not given)
  i	0.09
> Cc1ccccc1C(=O)/C(C#N)=N/Nc1c(C)n(C)n(-c2ccccc2)c1=O
  i	-0.98
> S=c1[nH]nc(COc2cccc(Cl)c2)n1Cc1ccccc1
  i	-0.37

# Given with values ahead of the structure: 2 of the compounds above
KCNQ2 inh | KCNQ2 inh baseline | SMILES
i | -0.95 | O=C(CNCc1ccc(Cl)cc1)N1CCc2ccccc2C1
i | 0.88 | Cc1ccc(NC(=O)/C(=C\C=C\c2ccccc2)NC(=O)c2ccccc2)cc1

# (more compounds)
# Every second line gives: KCNQ2 inh	KCNQ2 inh baseline
> Cc1cc(C)c(S(=O)(=O)c2ccc(Cl)cc2C)c(Cl)n1
  i	1.5
> COc1cc(SC)ccc1C(=O)N1CCN(Cc2ccccc2)CC1
  i	-0.06
> O=C(NC1CCSc2ccccc21)c1cc(S(=O)(=O)N2CCOCC2)ccc1Cl (stereo not given)
  i	3.8
> O=C(Cc1cccs1)N1CCN(c2ccccn2)CC1
  i	0.44
> O=C(Cn1nnc2ccccc21)c1ccc([N+](=O)[O-])cc1
  i	-1.1
> Cc1ccc(CCNC(=O)CCc2nc3ccccc3[nH]2)cc1
  i	-1.6
> CCN(CC)S(=O)(=O)c1ccc(C)c(NS(=O)(=O)c2cc(/C=C/C(=O)O)cc(OC)c2OC)c1
  i	-0.07
> COCCn1c(C)cc(C(=O)COC(=O)c2ccccc2Br)c1C
  i	-0.64
> O=C(NC(Cc1c[nH]c2ccccc12)C(=O)Nc1ccc(F)cc1)c1cccs1 (stereo not given)
  i	-0.42
> C[C@H](NC(=O)Cc1ccccc1)C(=O)N1CCC2(CC1)NCCc1[nH]cnc12
  i	-0.06

# One compound at a time, from the list above. Order of values: KCNQ2 inh | KCNQ2 inh baseline
# O=C(NC(Cc1c[nH]c2ccccc12)C(=O)Nc1ccc(F)cc1)c1cccs1 (stereo not given) across the screens: i | -0.42
# Cc1ccc(CCNC(=O)CCc2nc3ccccc3[nH]2)cc1 across the screens: i | -1.6
# COCCn1c(C)cc(C(=O)COC(=O)c2ccccc2Br)c1C across the screens: i | -0.64
# Cc1cc(C)c(S(=O)(=O)c2ccc(Cl)cc2C)c(Cl)n1 across the screens: i | 1.5
# O=C(Cc1cccs1)N1CCN(c2ccccn2)CC1 across the screens: i | 0.44

# Going on with the list:
# Every second line gives: KCNQ2 inh	KCNQ2 inh baseline
> CCOc1cc(NC(=O)c2cccs2)c(OCC)cc1NC(=O)c1ccco1
  i	3.7
> CC(=O)c1cccc(NC(=O)c2sc3nc4n(c(=O)c3c2C)CCCC4)c1
  i	0.91
> CC(C)c1ccc(NC(=O)c2cc([N+](=O)[O-])ccc2N2CCOCC2)cc1
  i	-0.79
> Cn1nc(C(C)(C)C)c(NC(=O)c2cccs2)c1C(C)(C)C
  i	1.5
> O=S(=O)(c1ccc(N2CCN(Cc3ccc4c(c3)OCO4)CC2)nc1)N1CCOCC1
  i	0.63
> CCOc1ccccc1CNC(=O)C(C)n1nc(C)c2c(C)n(-c3ccccc3)nc2c1=O (stereo not given)
  i	-0.47
> Cc1ccccc1NC(=O)c1sc2nc3c(c(-c4ccco4)c2c1N)CCC3
  i	0.07
> Cc1noc(C)c1C(=O)OC(C(=O)NC1CCCC1)c1ccc(F)cc1 (stereo not given)
  i	0.96
> S=C(Nc1ccc2cn[nH]c2c1)Nc1ccccc1Cl
  i	-0.12
> Cc1cc(C)nc(SC(C)C(=O)N/N=C/c2cccs2)n1 (stereo not given)
  i	-0.17

# Assay outcomes: PubChem, Johns Hopkins Ion Channel Center
